Assay outcomes: PubChem BioAssay, National Center for Advancing Translational Sciences (NCATS)
RE007 growth inh: qHTS Assay for Inhibitors of the HIV-1 protein Vpr | S. pombe RE007 Vpr strain, BacTiter-Glo ATP luminescence, 24 h; control for the full effect not named in the record | Potency, µM (top dose mostly 92.2 µM), for the others: at the top dose activity change, negative = less growth | 360,000 tested, 0.21% active | AID 651644, 2012; active = well fitted falling curve with a large enough effect; inconclusive = small, poorly fitted or top-dose-only effect; inactive = no such curve, though single readings can be large or run the other way;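 note: % is set by controls: 0 for no effect and ±100 for the full control effect; nearly all actives have a fitted effect of over 50% in size; the assay follows cell death caused by Vpr and the record does not say whether a fall means rescue or toxicity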
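Fission yeast RE007 carrying one integrated HIV-1 vpr copy, seeded at OD 0.01 in PMG+AL medium with 23 nL pinned compound. Grown 24 h at 30 degrees; viability read by BacTiter-Glo luminescence after 5 min.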
Cruzain inh Det: qHTS Assay for Promiscuous and Specific Inhibitors of Cruzain (with detergent); Cruzipain (Trypanosoma cruzi), P25779; purified cruzain, Z-FR-AMC fluorescence, 0.01% Triton; Potency, µM, inactives show max response, negative = inhibition, hits mostly inhibitors; 200,000 tested, 0.43% active; active = well fitted curve in the direction sought with a large enough effect; inconclusive = small, poorly fitted or top-dose-only effect, or another doubt; inactive = no such curve, though single readings can be large; an effect the other way counts as inactive or inconclusive;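 note: plate controls were neutral wells for no effect and buffer without enzyme for full effect; nearly all actives have a fitted effect of over 40% in size; top concentration of the series not given in the record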
Target sequence (P25779 123-467 limits assumed): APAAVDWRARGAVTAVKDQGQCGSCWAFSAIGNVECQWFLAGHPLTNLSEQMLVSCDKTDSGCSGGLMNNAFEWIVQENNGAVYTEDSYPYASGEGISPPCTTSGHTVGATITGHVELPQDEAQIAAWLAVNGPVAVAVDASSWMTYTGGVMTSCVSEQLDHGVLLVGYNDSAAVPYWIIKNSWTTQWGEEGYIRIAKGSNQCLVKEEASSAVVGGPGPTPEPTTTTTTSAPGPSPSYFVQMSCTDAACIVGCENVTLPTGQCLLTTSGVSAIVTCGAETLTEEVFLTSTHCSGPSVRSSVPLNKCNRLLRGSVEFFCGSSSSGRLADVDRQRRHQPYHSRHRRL
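Compounds were screened in titration against cruzain (1.5 nM) with 0.01% Triton X-100 to counter colloidal aggregation. Activity was the AMC fluorescence increase over 60 s after adding 2 uM Z-FR-AMC at pH 5.5.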
Lassa entry inh: qHTS for Inhibitors of binding or entry into cells for Lassa Virus. Lassa virus pseudotype entry inhibition, cell reporter; control for the full effect not named in the record. Potency, µM (highest dose often 37.9 µM), without a hit: at the highest dose activity change, negative = inhibition, most hits filed as inhibitors. 300,000 tested, 1.2% active. AID 540256, 2011; active means well fitted inhibition curve with a large enough effect; inconclusive means small, poorly fitted or top-dose-only effect, or effect the other way; inactive means flat fitted curve, though single readings scatter; tested in HEK293 cells; note: % is set by controls: 0 for no effect and ±100 for the full control effect; nearly all actives have a fitted effect of over 50% in size; luciferase read-out
Cruzain noTriton: qHTS Assay for Promiscuous and Specific Inhibitors of Cruzain (without detergent) | Cruzipain (Trypanosoma cruzi), P25779 | purified cruzain, Z-FR-AMC fluorescence, no detergent | Potency, µM, for the others: max response, negative = inhibition, hits mostly inhibitors | 200,000 tested, 2.3% active | AID 1476, 2009; active = well fitted curve in the direction sought with a large enough effect; inconclusive = small, poorly fitted or top-dose-only effect, or another doubt; inactive = no such curve, though single readings can be large; an effect the other way counts as inactive or inconclusive;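 note: plate controls were enzyme without inhibitor for no effect and buffer without enzyme for full effect; nearly all actives have a fitted effect of over 40% in size; top concentration of the series not given in the record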
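Detergent-free condition (0.00005% Triton X-100) in acetate buffer pH 5.5 with DTT. 1.5 nM enzyme and compound were pre-mixed 15 min, then 2 uM Z-FR-AMC substrate added; reaction progress from fluorescence change between first and third reads (60 s).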
2A StopGo: High Throughput Screening for Foot and Mouth Disease Virus Antivirals; human cells with a luciferase reporter of 2A StopGo recoding; control for the full effect not named in the record; Potency, µM (doses to about 57.9 µM), without a hit: at the highest dose signal change, negative = less light; 410,000 tested, 1.2% active; AID 1159524, 2015; active = well fitted falling curve with a large enough effect; inconclusive = small, poorly fitted or top-dose-only effect; inactive = no such curve, though single readings can be large or run the other way; tested in HEK293T cells; note: % is set by controls: 0 for no effect and ±100 for the full control effect; nearly all actives have a fitted effect of over 45% in size; luciferase light after 4 h
NS1 inh: qHTS Assay for Inhibitors of Influenza NS1 Protein Function; S. cerevisiae slowed by influenza A NS1, growth recovery by OD600; Potency, µM (highest dose often 46.1 µM), for inactives: top-dose activity, positive = more growth; 270,000 tested, 0.4% active; note: actives are rising curves; nearly all actives have a fitted effect of over 50% in size
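A cell-based growth assay was used: compounds that relieve NS1-induced slow growth of budding yeast raise OD600. Assay medium was yeast nitrogen base with ammonium sulphate and -URA supplement, pH 6.0, with 2% galactose.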
MARV entry inh: qHTS for inhibitors of binding or entry into cells for Marburg Virus | Marburg virus pseudotyped entry inhibition, cell reporter; control for the full effect not named in the record; about a third of the inactives were read at about 46 µM | Potency, µM (titrated, usually from 37.8 µM), for the others: at the highest dose activity change, negative = inhibition, actives largely listed as inhibitors | 300,000 tested, 1.8% active | AID 540276, 2011; active = well fitted inhibition curve with a large enough effect; inconclusive = small, poorly fitted or top-dose-only effect, or effect the other way; inactive = flat fitted curve, though single readings scatter; tested in HEK293 cells; about a fifth of its hits are not listed in these tables; note: % is set by controls: 0 for no effect and ±100 for the full control effect; luciferase read-out
SARS PLP yeast: qHTS of Yeast-based Assay for SARS-CoV PLP | S. cerevisiae expressing SARS-CoV PLpro, growth rescue; control for the full effect not named in the record | Potency, µM (series often up to 32.9 µM), for the others: top-dose activity, positive = growth rescue | 330,000 tested, 0.19% active; note: 0% is about no effect; nearly all actives have a fitted effect of over 55% in size; growth read by luminescence after 48 h
* = called active by the depositor; ? = inconclusive; nt = not tested or not shown; [ ] = another dose, or the depositor's remark. Unless noted, calls come from the whole dose curve; as a rule, active means well fitted rising curve with a large enough effect; inconclusive means small, poorly fitted or top-dose-only effect; inactive means no such curve, though single readings can be large or run the other way. Potency is the fitted concentration of half-maximal effect.

SMILES | RE007 growth inh | Cruzain inh Det | Lassa entry inh | Cruzain noTriton | 2A StopGo | NS1 inh | MARV entry inh | SARS PLP yeast
COc1ccc(CNC(=O)C(=O)NC2CC(C)(C)NC(C)(C)C2)cc1 | 1% | nt | 16% | nt | 3% | 1% | -26%[46.1 µM] | nt
CCc1ccc(OCC(=O)Oc2ccc([N+](=O)[O-])cc2)cc1 | -6% | nt | nt | nt | -2% | 3% | nt | 0%
Cc1ccc(C)c(NC(=O)c2nc(S(C)(=O)=O)ncc2N(Cc2ccc(C(C)(C)C)cc2)Cc2ccco2)c1 | nt | -3.2% | -23%[46.1 µM] | 7.9µM* | -24% | nt | ? | nt
Cc1sc(N/N=C/c2ccco2)nc1-c1ccccc1 | -9% | -13% | 21µM* | ? | 18% | 14% | ? | 1%
Cc1ccc(C)c2c(N)c3c(nc12)CCCCC3 (tested in a mixture with another compound) | 7% | nt | -2% | nt | -25% | nt | 0%[46.1 µM] | 0%
CCCN(CCC)c1ccc(/C=C/c2ccc3cc(OCC)ccc3n2)cc1 | -8% | nt | nt | nt | 0% | 8% | nt | -1%
COc1ccc(C(=O)NCCS(=O)(=O)N(C)C2CCCCC2)cc1 | -3% | nt | -5% | nt | -3% | nt | 4% | -2%
CCOC(=O)C1=NOC(COc2ccccc2C=O)C1 (stereo not given) | 12% | nt | -22% | nt | 9% | nt | 23%[46.1 µM] | -2%
COc1ccccc1CNC(=O)CN1C(=O)c2cccnc2Oc2ccccc21 | nt | -1.6% | 23%[46.1 µM] | 3% | 11% | nt | -4%[46.1 µM] | nt
Cc1cccc(-n2c(=O)c3c(C)c(C)sc3n(CC(N)=O)c2=O)c1 | 8% | nt | 0%[46.1 µM] | nt | -11% | nt | 12%[46.1 µM] | 2%
C=CCn1c(CSc2nnc(-c3ccccc3)n2C)n[nH]c1=S | 5% | nt | -3% | nt | -2% | 7% | 2%[46.1 µM] | 0%
CCOc1ccccc1NC(=O)c1cc2c(=O)n(Cc3cccnc3)ccc2nc1C | nt | -1.1% | 19%[46.1 µM] | -7% | -1% | nt | nt | nt
CCn1c(C)[n+](CCCS(=O)(=O)[O-])c2cc(Cl)c(Cl)cc21 | 1% | 9.0% | -21% | -1% | -13% | 1% | 14% | -2%
COc1ccc(C(=O)NCCOc2cccc(Oc3ccccc3)c2)cc1OC | -1% | nt | -3% | nt | ? | nt | -16% | -5%
CC(C)(C)c1ccc(Cc2n[nH]c(=S)[nH]c2=O)cc1 | 37% | nt | 24%[46.1 µM] | nt | -14% | -11% | 0%[46.1 µM] | -3%
CC1(C(=O)O)Sc2[nH]c(=O)sc2C2c3ccccc3OC(=O)C21 (stereo not given) | 8% | 1.5% | -5% | 11% | -5% | ? | -2% | -3%
O=C(Nc1cccc(C(=O)O)c1)Nc1ccc2c(c1)OCO2 | -15% | nt | 0.32µM* | nt | ? | ? | ? | -3%
O=C(COc1ccccc1Cl)NCCCN1CCOCC1 | -3% | -8.8% | 6% | -7% | -1% | -9% | 4% | 3%
CC1Cc2ccccc2N1c1ncnc2c1nnn2Cc1ccccc1 (stereo not given) | -3% | -24% | -27% | ? | -26% | -21% | ? | -1%
O=C(Nc1nc(COc2ccccc2)cs1)C12CC3CC(CC(C3)C1)C2 | -14% | 0.9% | -5% | -12% | -10% | -8% | -5% | ?
N#Cc1ccccc1Cn1cc(C(=O)c2cccs2)c2ccccc21 | -11% | -5.7% | -5% | 27% | -26% | -31% | 2%[46.1 µM] | 4%
Cc1cc(Cl)ccc1OCC(O)CNCCc1ccc(S(N)(=O)=O)cc1 (stereo not given) | 2% | nt | nt | nt | -17% | -4% | nt | 3%
CCCCC(=O)Nc1ccc2c(c1)nc(CCN1CCN(C)CC1)n2C | -9% | nt | -8%[46.1 µM] | nt | -5% | 0% | -9%[46.1 µM] | 0%
COc1ccc(S(=O)(=O)N2CCC(NC(=O)N3CCOCC3)CC2)cc1 | 0% | nt | 13%[46.1 µM] | nt | -1% | nt | 0%[46.1 µM] | -1%
CCOc1ccc(C(CC(=O)O)NC(=O)C2c3ccccc3Oc3ccccc32)cc1 (stereo not given) | -11% | -2.4% | nt | 7% | 18% | 13% | 0% | -3%

The list goes on.
SMILES | RE007 growth inh | Cruzain inh Det | Lassa entry inh | Cruzain noTriton | 2A StopGo | NS1 inh | MARV entry inh | SARS PLP yeast
Cc1c(Cl)cccc1NC(=O)CCn1cnnn1 | nt | 1.1% | -4%[46.1 µM] | 7% | -17% | nt | 0%[46.1 µM] | nt
Cc1occc1C(=O)NC1CCCCCC1 | ? | 3.5% | 6% | 3% | 24% | -11% | ? | -37%
CCOC(=O)c1cccc(NC(=O)CCc2nnc3ccc(N4CCN(C)CC4)nn23)c1 | -1% | nt | 7%[46.1 µM] | nt | -5% | 3% | 2%[46.1 µM] | 2%
Cc1cc(C)cc(N2CCn3c2nc2c3c(=O)n(Cc3c(F)cccc3Cl)c(=O)n2C)c1 | nt | -1.0% | -4%[46.1 µM] | 3% | -3% | nt | nt | nt
O=C(COC(=O)CN1C(=O)C2CCCCC2C1=O)Nc1ccc(S(=O)(=O)N2CCOCC2)cc1 (stereo not given) | -12% | -2.1% | 0% | 12% | -11% | -8% | 7% | -11%
Cc1c(-c2cc(Br)ccc2O)nc2cc3c(cc2c1C)OCO3 | 7% | nt | 9%[46.1 µM] | nt | 37%[activator] | 7% | ? | -1%
Cc1noc(C)c1COC(=O)C1CC(O)CN1S(=O)(=O)c1ccc(Cl)cc1 (stereo not given) | 0% | 1.8% | -8% | 2% | -17% | -10% | 4% | 4%
CC(C)c1cc(C(=O)N2CCCC(N3CCN(c4ccc(F)cc4)CC3)C2)no1 (stereo not given) | -6% | nt | ? | nt | 26% | -17% | -16%[46.1 µM] | 1%
O=C(CC1SC(N2CCCCC2)=NC1=O)Nc1cccc(C(=O)NCc2ccc(F)cc2)c1 (stereo not given) | ? | nt | -8% | nt | -24% | nt | -2% | -4%
Cc1sc2c(c1C)c(=O)n(CCc1ccccc1)c(=O)n2Cc1ccccc1Cl | nt | -1.1% | 11%[46.1 µM] | -1% | -19% | nt | -9%[46.1 µM] | nt
CN1CCN(C(=O)/C(=C/c2ccc(F)cc2)NC(=O)c2ccccc2)CC1 | -7% | nt | 6% | nt | 13% | 1% | 0%[46.1 µM] | 1%
O=C(C(Cl)Cl)N1CC2CCC(CC2)C1 | -10% | nt | 0%[46.1 µM] | nt | 0% | nt | 12%[46.1 µM] | nt
COc1ccc(N2CC(C(=O)N[C@@H](CC(C)C)C(=O)NC3CCCCC3)CC2=O)cc1 (stereo not given in full) | -10% | nt | -15%[46.1 µM] | nt | 2% | 5% | -14%[46.1 µM] | 5%
COc1ccc(NC(=O)c2cc3c(C)nn(-c4ccccc4)c3s2)c(OC)c1 | nt | -2.7% | -8%[46.1 µM] | -4% | 0% | nt | -15%[46.1 µM] | nt
CCCn1nc(NC(=O)C2CCCO2)c2cc3cccc(C)c3nc21 (stereo not given) | 14% | nt | -11% | nt | 3% | 1% | -5%[46.1 µM] | -2%
COc1ccc(CC(C)NCCC(c2ccccc2)c2ccccc2)cc1 (stereo not given) | 5% | nt | nt | nt | 31%[activator] | -25% | nt | -7%
O=C(Nc1ccc(Cl)cc1N1CCOCC1)C1CCCO1 (stereo not given) | 8% | nt | -5%[46.1 µM] | nt | 6% | -3% | 1%[46.1 µM] | -5%
CCCCOC(=O)CCn1c(=S)oc2ccccc21 | -21% | -3.3% | 8% | -6% | 3% | -4% | -5% | 2%
O=C(Nn1cnnc1)c1ccc(Cl)c([N+](=O)[O-])c1 | 4% | nt | -18%[46.1 µM] | nt | 17% | 2% | -12%[46.1 µM] | -1%
O=C(CSc1ccccc1)N1CCN(C(=O)c2ccco2)CC1 | -1% | nt | nt | nt | 6% | 0% | nt | 0%
O=C(Nc1nc(-c2ccc(S(=O)(=O)N3CCCCCC3)cc2)cs1)c1cccs1 | -16% | -5.2% | -12% | 3.2µM* | 10µM* | 9% | ? | -9%
O=C(CN1CCN(c2ccccn2)CC1)NC1CCCCC1 | -11% | 2.3% | 10% | -3% | -23% | -6% | -2%[46.1 µM] | 1%
CCOC(=O)C1NC(=O)CC1c1ccccc1 (stereo not given) | -4% | 3.7% | -6% | -7% | 16% | 12% | 3% | 0%
COc1ccc(CN2CCN(C3CCOCC3)CC2CCO)c(C)c1C (stereo not given) | 0% | nt | -1%[46.1 µM] | nt | -23% | 0% | 15%[46.1 µM] | -1%
Cc1ccc(CSCC(=O)N(C)CC(=O)Nc2ccc(C)cc2)cc1 | -13% | nt | -9% | nt | -8% | nt | 11%[46.1 µM] | 1%

Going on with the list.
SMILES | RE007 growth inh | Cruzain inh Det | Lassa entry inh | Cruzain noTriton | 2A StopGo | NS1 inh | MARV entry inh | SARS PLP yeast
COc1ccccc1N(CCC#N)C(=O)CSc1ccc2c(c1)OCCO2 | -10% | -0.6% | 22% | -12% | -24% | -2% | -11% | 0%
CCCCCn1c(C(C)NC(=O)c2ccccc2)nc2ccccc21 (stereo not given) | nt | 0.3% | 20%[46.1 µM] | -2% | -19% | nt | -18%[46.1 µM] | nt
CCn1c(COc2ccc(C)cc2)nc2ccccc21 | -16% | nt | ? | nt | 19% | -43% | ? | -3%
O=C(Nc1ccccc1)NN1CC(=O)N(c2ccc(Cl)cc2)CC1=O | -4% | nt | 11% | nt | -15% | 6% | 8% | 2%
Cc1ccc(S(=O)(=O)c2nc(-c3ccccc3F)oc2N2CC(C)OC(C)C2)cc1 (stereo not given) | 10% | nt | 16µM* | nt | 27% | 3% | -17% | -4%
CC(=O)Nc1cccc(C(=O)N/N=C/c2ccccc2F)c1 | 11% | -3.5% | 0% | 2% | 14% | 8% | ? | -18%
CCOC(=O)c1cc2c(N)c(C(=O)c3cc(C#N)c(SC)nc3C)sc2nc1C | -1% | -3.7% | ? | 1% | nt | 7% | ? | 0%
Cc1nc2c(cnn2-c2ccccc2)c(=O)n1/N=C/c1ccccc1 | 16% | nt | -8% | nt | -10% | 4% | 8% | 1%
CCN(Cc1ccncc1)C(=S)Nc1ccc(Cl)cc1 | -1% | nt | 5%[46.1 µM] | nt | 2% | nt | 6%[46.1 µM] | 2%
